NPYLR7 agonist: mosquito NPYLR7 agonism; HEK293T NPYLR7/Galpha15, GCaMP6s calcium fluorescence; activation, % at 10 µM; AID 1259423; 0.15% of 270,000 active; in the data active means activation above about 40%;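 further: 0% = vehicle and 100% = reference agonist at the receptor; some compounds past the cut are filed as inactive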
NPYLR7 agonist max-min: also measured in NPYLR7 agonist; calls as there; activation, %; measured here: Max-Min RFU normalised activation; some inactives read as strong as hits;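 span of the calcium signal over five minutes; 0% = vehicle and 100% = native peptide agonist; compound fluorescence can raise it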
An asterisk follows results filed as active; & = joins results of further samples.

SMILES | NPYLR7 agonist | NPYLR7 agonist max-min
COc1cc(C#Cc2ccc3nnc(-c4ccc(OCCCN(C)C)cc4)n3c2)cc(OC)c1 | 8 | 3
Cc1cccc(NCN2C(=O)C3C4C=CC(C4)C3C2=O)c1 (stereo not drawn) | -3 | -3
Cn1c(=O)c(C(=O)Nc2nccs2)c(O)c2ccccc21 | -3 | -5
CC(C)=CC1C(C(=O)NC(C)c2ccc3c(c2)CCO3)C1(C)C (stereo not drawn) | 0 | -1
CC(=O)Nc1ccc(C(=O)N(Cc2cccc(C)c2)C(C)C)cc1 | 12 | 6
Cc1cc(N=Nc2c(Br)n[nH]c2C)n[nH]1 | 1 | -1
CCc1nc2n(n1)CCCC2NC(=O)C1(Cc2ccccc2)CCC1 (stereo not drawn) | 0 | -1
COc1cccc(C(CNC(=O)N2CCc3ccccc32)N(C)C)c1 (stereo not drawn) | -3 | -2
COc1ccc(CN2CCNC(=O)CC2)cc1SC(F)(F)F | 3 | 0
CCCC1C=CCN1C(=O)c1cc(COc2ccccc2)[nH]n1 (stereo not drawn) | 3 | 2
CC1(C)O[C@@H]2C[C@@](OCc3cccc(C(F)(F)F)c3)(C(=O)NCC3CCCO3)CC(OCc3ccc(C#N)cc3)[C@@H]2O1 (stereo partly drawn) | 23 | 12
Cn1cc(S(=O)(=O)Nc2ccc(Oc3ccccc3)cc2)c(=O)n(C)c1=O | -1 | -3
Cc1[nH]c2c(CNC(=O)c3ccc[nH]3)cc(F)cc2c1C | 19 | 10
CC(C)N(CC1COc2ccccc2O1)C(=O)CN1CCCN(C)CC1 (stereo not drawn) | 13 | 0
Cc1cccc(NC(=O)CSc2nc(=O)n3cccc(C)c3n2)c1C | 17 | 16
O=C(CCC1CCN(C(=O)C2CC(=O)N(Cc3cccnc3)C2)CC1)NC1CC1 (stereo not drawn) | 18 | 1
COc1ccc(N(C(=O)c2cc(=O)[nH]c3ccccc23)C2=NC(C)(C)CS2)cc1 | -10 | -12
CCOc1ccccc1C(=O)Nc1ccc(N2CCN(C(=O)c3ccccn3)CC2)nc1 | -3 | 8
Cc1ccc(-c2cc(C(=O)NCCc3ccc(Cl)cc3Cl)n(-c3ccccc3)n2)o1 | 16 | 25
Cc1cc(N=Cc2nc(-c3ccc(Br)cc3)oc2O)no1 | 7 | 6
C=CCn1c(SCC(=O)N2CCOCC2)nc2scc(-c3ccc(Cl)cc3)c2c1=O | -8 | -14
C=c1ccccc1=c1[nH]/c(=C/c2ccccc2F)c(=O)o1 | -8 | -11
COC(=O)c1ccccc1C(=O)N1CCCN(C)C2(CCN(C)CC2)C1 | 6 | 5
O=c1nc(SCc2c(F)cccc2Cl)c2c([nH]1)CCCC2 | 0 | -3
N#C/C(=C\c1ccc2noc(-c3ccccc3)c2c1)C(=O)Nc1ccc([N+](=O)[O-])cc1 | 2 | 2

A second format for 4 compounds above:
Values run as follows: NPYLR7 agonist | NPYLR7 agonist max-min
> COc1ccc(N(C(=O)c2cc(=O)[nH]c3ccccc23)C2=NC(C)(C)CS2)cc1
 : -10 | -12
> COc1cccc(C(CNC(=O)N2CCc3ccccc32)N(C)C)c1 (stereo not drawn)
 : -3 | -2
> Cc1[nH]c2c(CNC(=O)c3ccc[nH]3)cc(F)cc2c1C
 : 19 | 10
> CC1(C)O[C@@H]2C[C@@](OCc3cccc(C(F)(F)F)c3)(C(=O)NCC3CCCO3)CC(OCc3ccc(C#N)cc3)[C@@H]2O1 (stereo partly drawn)
 : 23 | 12

The list goes on:
SMILES | NPYLR7 agonist | NPYLR7 agonist max-min
CCOc1ccccc1-c1nc(CN2CCCCC2c2cccc(OC)c2)c(C)o1 (stereo not drawn) | -9 | -12
CN(C)C(=O)COc1ccc(C(=O)C=Cc2cc(Br)ccc2OC(F)F)cc1 | -1 | 24
O=C(C1CCCO1)N1CCC(c2nn3c(C4CCCC4)nnc3s2)CC1 (stereo not drawn) | 2 | -1
O=C(Cn1c(C(F)(F)F)nc2ccccc21)NCCc1ccccc1 | 1 | -3
O=S1(=O)c2cnccc2O[C@@H](COCc2ccccc2)CN1Cc1cccs1 | 11 | 20
Cc1c(NC(=S)NC(=O)c2ccc(F)cc2)c(=O)n(-c2ccccc2)n1C | -7 | -17
Cc1nc2ncc3c(=O)n(CC4CCCO4)ccc3n2n1 (stereo not drawn) | 3 | 5
Cc1ccc(C(=O)NCCN2CCS(=O)(=O)CC2)cc1S(C)(=O)=O | 4 | 13
COc1ccc2oc(=O)c(C(=O)NCc3ccc(F)cc3)cc2c1 | -4 | -12
O=C(NCc1cccc(CO)c1)N1CCC2(CCCCC2)C1 | -26 | -24
N#Cc1ccccc1S(=O)(=O)Nc1ccc2c(c1)CCC2 | 0 | -2
CS(=O)(=O)c1ccc(NS(=O)(=O)c2cc(C(F)(F)F)ccc2Cl)cc1 | 10 | 4
N#Cc1ccccc1CSc1nnc(N)s1 | 10 | 7
CC(C)(C)c1ccc(C(=O)Nn2cnc3c(cnn3C(C)(C)C)c2=O)cc1 | 4 | 5
Cc1nc(CN(C)Cc2cn(C)nc2-c2cccc(Cl)c2)cs1 | 1 | -1
CCCc1ccc(CN2CCN(C)C3(CCN(C(=O)COC)CC3)C2)o1 | 4 | 3
O=C(CN1CCN(S(=O)(=O)c2ccccc2)CC1)NC1CCCCCC1 | 0 | 2
c1csc(-c2nc(CSc3nnc(C4CC4)n3C3CC3)co2)c1 | -1 | 19
O=S(=O)(NCc1cn2ccccc2n1)c1cc(F)ccc1F | 4 | 2
O=C(Nc1nnc(-c2ccc(Br)cc2)s1)C1CCCN1S(=O)(=O)c1cccc2cccnc12 (stereo not drawn) | 26 | 27
CC(=O)N1CCN(C(=O)NCCS(=O)(=O)c2ccccc2)CC1 | 4 | 1
CN1CCOC(C(=O)NCC2(Cc3ccccc3)CCC2)C1 (stereo not drawn) | 11 | 7
O=C(NNC(=O)c1cccc(S(=O)(=O)N2CCCC2)c1)c1ccc(Cl)cc1 | -6 | -10
COc1ccc(-c2nnc(NC(=O)C(C)NC(=O)c3ccc(C)c([N+](=O)[O-])c3)s2)cc1 (stereo not drawn) | 19 | 27
Cc1ccc(-c2cnc(-c3ccccc3C(=O)N3CCCN(C(N)=O)CC3)o2)cc1 | -4 | 699

New compounds follow
SMILES | NPYLR7 agonist | NPYLR7 agonist max-min
CS(=O)(=O)NC1CCN(C(=O)c2cn(Cc3ccc(F)cc3)nn2)CC1 | -3 | -3
CCn1cc(-c2nc(-c3ccc(C(F)(F)F)cc3)no2)c(=O)c2cc(F)c(N3CCOCC3)cc21 | 3 | 0
O=C(CSc1ncnc2c1cnn2-c1ccc(F)cc1)Nc1ccon1 | 10 | 4
O=C1C(=O)N(CC(O)CN2C(=O)C(=O)c3ccccc32)c2ccccc21 | -1 | -3
CC1CCN(C(=O)CN2CCC(c3nc(C4CC4)n[nH]3)CC2)CC1 | 10 | 6
OC1(Cc2cc(-c3ccccc3)no2)CCN(Cc2nccs2)CC1 | -2 | -5
O=C1C=C(O)c2ccccc2C1=O | 0&-3&-20 | 20&-4&-23
COc1ccc(N2CCN(C(=O)C3CC=CCC3C(=O)N[C@H](C)C(C)(C)C)CC2)cc1 (stereo partly drawn) | -6 | -13
N#Cc1csc(CNc2ccn(Cc3ccccc3)n2)c1 | -6 | 885
CN(CCC(C)(C)O)C(=O)/C=C/c1cnn(C)c1 | 15 | 12
CC(=O)N1CCc2cc(NC(C)c3nnnn3-c3ccccc3)ccc21 (stereo not drawn) | 3 | 1
CN1CCN([C@@H]2CCN(c3ccc4ccccc4n3)C[C@H]2O)CC1 | 1 | -3
CCCCN(C)c1c(CC)nc2ccc(C(=O)Nc3ccc(NC(C)=O)cc3)cn12 | 2 | -12
CNC(=O)CSc1nnc2n1CCN2c1ccc(F)cc1 | 3 | 2
COc1ccc(NC(=O)N2CCc3cc(OC)c(OC)cc3C2c2ccccc2Cl)c(C)c1 (stereo not drawn) | 19 | 13
Cc1ccc(C)c(N2CC(O)(c3cccs3)[N+]3=C2CCCC3)c1 (stereo not drawn) | -1 | 0
CC(C)C(=O)N1CCC1(C)C(=O)Nc1nc2ccccc2n1C (stereo not drawn) | 5 | 2
Cc1ccc(Cn2ccnc2CN(CCN2CCOCC2)C(=O)CC(C)C)cc1 | 4 | 11
O=C(CCCOc1ccccc1)N(Cc1ccco1)Cc1cc2ccccc2o1 | -4 | -7
Cn1cccc1CC(=O)NNC(=O)Nc1ccc(Cl)c(Cl)c1 | 5 | 1
CCc1nnc(-c2ccc(NC(=O)NCC(CC(C)C)N3CCOCC3)cc2)o1 (stereo not drawn) | 11 | 6
C[C@@H]1Cc2nc(C(C)(C)C)ncc2C(=O)N1Cc1cccc(C(F)(F)F)c1 | 16 | 12
O=C1C(=O)N(CN2CCN(C(=O)c3ccco3)CC2)c2ccccc21 | 24 | 15
O=[N+]([O-])c1cccc(Nc2nc(OC(C(F)(F)F)C(F)(F)F)nc(N3CCOCC3)n2)c1 | 7 | -5
O=C(NCc1csc(-c2cnccn2)n1)[C@H]1Cc2ccccc2CN1 | 24 | 10

A few values from the results shown.
Value of O=[N+]([O-])c1cccc(Nc2nc(OC(C(F)(F)F)C(F)(F)F)nc(N3CCOCC3)n2)c1 under NPYLR7 agonist max-min: -5
Value of OC1(Cc2cc(-c3ccccc3)no2)CCN(Cc2nccs2)CC1 under NPYLR7 agonist max-min: -5
Value of CC(=O)N1CCc2cc(NC(C)c3nnnn3-c3ccccc3)ccc21 (stereo not drawn) under NPYLR7 agonist max-min: 1
Value of COc1ccc(NC(=O)N2CCc3cc(OC)c(OC)cc3C2c2ccccc2Cl)c(C)c1 (stereo not drawn) under NPYLR7 agonist: 19
Value of O=C(NCc1csc(-c2cnccn2)n1)[C@H]1Cc2ccccc2CN1 under NPYLR7 agonist: 24
Value of CCCCN(C)c1c(CC)nc2ccc(C(=O)Nc3ccc(NC(C)=O)cc3)cn12 under NPYLR7 agonist: 2

The listing continues:
SMILES | NPYLR7 agonist | NPYLR7 agonist max-min
Cc1cc(NC(=O)Cn2cnc3c(nnn3-c3ccc(Cl)cc3)c2=O)no1 | -5 | -8
Cn1cc(S(=O)(=O)NC(CN2CCCC2=O)c2cccc(C(F)(F)F)c2)cn1 (stereo not drawn) | 4 | 3
CCCCc1ccc(C(=O)Nc2c(-c3ccc(C(F)(F)F)cc3)nc3ccccn23)cc1 | -2 | 0
O=c1ccc(-c2ccccc2)nn1CCNS(=O)(=O)CCc1ccccc1 | -1 | -2
O=C(Cc1ccccn1)N1CCC(c2ccccc2Cl)C1 (stereo not drawn) | 11 | 7
O=C1C(c2c(-c3ccccc3)[nH]n(-c3ccccc3)c2=O)=C(N2CCOCC2)C(=O)N1Cc1ccccc1 | 9&6 | 6&20
CCN(Cc1nccn1C)C(=O)CC1C(=O)NCCN1Cc1cccnc1 (stereo not drawn) | 19 | 6
CC(c1ccc(S(C)(=O)=O)cc1)N(C)C(=O)Nc1ccc(F)cc1F (stereo not drawn) | 2 | 0
Cc1cnccc1NCCNC(=O)c1cn2c(n1)CNCC2 | 4 | -5
Cc1cc(F)ccc1NCC(=O)Nc1c(F)cccc1F | 13 | 9
CC(C)CNC(=O)C1CCCCC1c1nc2ccccc2s1 (stereo not drawn) | -1 | -2
O=C1C[C@H]2CC[C@@H](CN1)N2C(=O)Cc1ccccn1 | -3 | 1
CC1CCCCN1c1nnc(C(=O)NCCCN(C)C)c2ccccc12 (stereo not drawn) | 4 | 3

Reformatted with two lines to a compound: entries from further up.
Under each structure – NPYLR7 agonist | NPYLR7 agonist max-min
> N#C/C(=C\c1ccc2noc(-c3ccccc3)c2c1)C(=O)Nc1ccc([N+](=O)[O-])cc1
 : 2 | 2
> CCOc1ccccc1-c1nc(CN2CCCCC2c2cccc(OC)c2)c(C)o1 (stereo not drawn)
 : -9 | -12

Assay outcomes deposited in PubChem by Fisher Drug Discovery Resource Center.

Only part of the results is shown; the hit share may differ from the screen's.
